UCH37 inh: inhibitors of human deubiquitinating enzyme UCH37; Q9Y5K5; inhibition, % (concentration not given with the values); hit rate 0.33% among 330,000; purified proteasome/UCH37, Ub-AMC cleavage fluorescence;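 active = mean of two replicates above 20%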;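 note: 0% = compound-free wells with enzyme and 100% = wells lacking proteasome; stock transfer was 100 nL into about 20 µL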
Target sequence (Q9Y5K5 whole entry, looked up): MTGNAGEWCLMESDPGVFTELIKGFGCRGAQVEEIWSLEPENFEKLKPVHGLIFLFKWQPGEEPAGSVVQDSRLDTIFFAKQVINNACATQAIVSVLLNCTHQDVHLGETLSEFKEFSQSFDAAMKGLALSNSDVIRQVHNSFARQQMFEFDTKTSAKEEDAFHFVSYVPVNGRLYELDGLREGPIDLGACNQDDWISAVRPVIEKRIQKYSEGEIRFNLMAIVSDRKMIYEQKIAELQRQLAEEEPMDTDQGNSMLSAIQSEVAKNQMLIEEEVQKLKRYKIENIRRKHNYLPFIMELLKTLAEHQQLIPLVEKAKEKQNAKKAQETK
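Material: human UCH37 enzyme supplied as purified proteasome complex / Amount: 0.15 nM proteasome as dispensed / Buffer or medium: pH 7.4 Tris-HCl (50 mM) with ovalbumin, ATP-MgCl2, DTT / Times: preincubation 30 min, reaction 25 min, room temperature / Technique: AMC fluorescence from Ub-AMC cleavage, excitation 355 nm, emission 460 nm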
HNF4A DNA FP: change in binding of human HNF4 alpha to DNA | P41235 | HNF4a-FITC DNA binding, fluorescence polarization, 1 h | activity change, % at 10 µM | hit rate 0.3% among 360,000; in the data active = activity change above about 30%, passing the limit was not always enough;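 note: controls were the assay level and a saturating level of protein; the project sought stronger binding though the title names inhibitors; some compounds called inactive have numbers as strong as hits; positive values seem to mean higher polarization but the record does not say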
Target sequence (P41235 whole entry, looked up): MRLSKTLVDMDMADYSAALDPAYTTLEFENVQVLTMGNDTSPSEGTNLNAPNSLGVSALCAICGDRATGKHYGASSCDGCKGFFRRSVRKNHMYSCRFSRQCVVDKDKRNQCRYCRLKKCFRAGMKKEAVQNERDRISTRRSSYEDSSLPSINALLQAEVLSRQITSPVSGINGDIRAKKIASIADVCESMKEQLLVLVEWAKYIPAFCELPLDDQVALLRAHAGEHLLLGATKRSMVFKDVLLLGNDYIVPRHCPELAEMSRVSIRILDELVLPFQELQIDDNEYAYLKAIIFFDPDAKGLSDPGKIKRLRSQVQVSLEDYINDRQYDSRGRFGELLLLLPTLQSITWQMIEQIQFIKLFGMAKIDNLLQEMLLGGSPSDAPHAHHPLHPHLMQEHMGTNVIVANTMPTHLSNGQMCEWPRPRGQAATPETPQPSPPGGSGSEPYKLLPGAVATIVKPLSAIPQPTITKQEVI
Ecoli growth: inhibitors of Escherichia coli growth | hit rate 0.21% among 330,000 | OD600, 23 h; active compounds read low | OD600 absorbance (no concentration beside the values);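 active = OD600 absorbance below the run mean of sample wells minus 3.6 SD, in any replicate, cut at about 0.56 in these data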;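 note: stock transfer was 300 nL into about 60 µL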
FGF22 binding: binders of recombinant human FGF22 by thermal shift; AID 651658; SYPRO orange fluorescence; percent of sucrose octasulfate shift, DMSO zero; calls only at 9.99 µM; hit rate 1.5% among 340,000;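 active = melting point raised past a set limit in the mean and every replicate; three in four hits are not shown here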
LANA-H2B inh: blocks KSHV LANA binding to histone H2A/H2B; Q9QR71; cell-free LANA-H2A/H2B peptide, fluorescence polarization; inhibition, % (test concentration not listed); hit rate 0.6% among 320,000; AID 2629; in the data active = inhibition mostly above about 10%, no sharp cut-off; inactive = mostly below about 6.7%;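 note: stock transfer was 7.5 nL into about 10 µL; 0% = median of vehicle wells and 100% = median of positive control wells; one replicate is shown; the record names a cut of 25% in any replicate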
B2AR ag: human beta-2 adrenergic receptor agonism by FAP. P07550. response, % (no concentration beside the values). hit rate 0.43% among 340,000. Am2.2-beta2AR cells, FAP receptor internalization, flow cytometry; reference of the scale not given here;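 active = response above a set limit, near 3 SD of response in nonfluorescent compounds, cut at about 42% in these data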;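 note: stock transfer was 100 nL into about 11 µL; a reference agonist was the positive control; negative values mostly stem from fluorescent compounds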
ALR inh: human ALR oxidase inhibition via reduced H2O2 | P55789 | purified ALR, DTT oxidation, H2O2 HRP-luminol luminescence | inhibition, % (concentration not given with the values) | hit rate 3.8% among 290,000 | AID 485317;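 active = mean and each replicate at 75% or more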;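 note: stock transfer was 7.5 nL into about 7.5 µL; 0% = neutral wells and 100% = wells with inactivated enzyme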
Target sequence (P55789 whole entry, looked up): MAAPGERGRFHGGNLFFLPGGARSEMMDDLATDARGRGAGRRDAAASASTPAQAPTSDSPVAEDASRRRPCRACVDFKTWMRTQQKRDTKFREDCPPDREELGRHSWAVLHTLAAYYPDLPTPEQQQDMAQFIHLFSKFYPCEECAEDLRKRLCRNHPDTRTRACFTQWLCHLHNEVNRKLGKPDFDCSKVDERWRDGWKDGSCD
The depositor's hits bear a star; i = inactive; · = not tested or not shown. A portion of the library; count on the stated rates, not on these rows.

UCH37 inh	HNF4A DNA FP	Ecoli growth	FGF22 binding	LANA-H2B inh	B2AR ag	ALR inh	smiles
-2.5	3.4	0.66	i	5.4	6	-1	COc1ccc(OC)c(NC(=O)NCCc2c[nH]c3ccccc23)c1
-2.2	-0.8	0.63	i	-6.7	-1	·	COc1ccc(C(=O)c2sc(Nc3ccccc3)nc2C)cc1
5.2	2.2	0.7	i	4.9	3	-3	Cn1cc(C(=O)N2CCCCC2)c(=O)c2cc(S(=O)(=O)N3CCCC3)ccc21
4.3	-1.0	0.68	i	·	4	·	O=C(CN1C(=O)NC2(CCCCCCC2)C1=O)NCc1ccccc1Cl
1.5	-2.4	0.68	·	4.2	-2	-10	O=C(CCC1COc2ccccc2O1)NCc1ccccc1 (stereo unspecified)
8.5	-1.8	0.65	i	0.6	35	-9	CCN(CC)CCNC(=O)c1ccc(NC(=O)c2ccc(COc3ccccc3)cc2)cc1
-0.8	6.6	0.7	i	-179	-7	27	COc1ccc(N2CCN(Cc3nc4sc(C)c(C)c4c(=O)[nH]3)CC2)cc1
4.5	1.6	0.69	i	3.9	2	-14	Cc1cc(F)ccc1NC(=O)c1cnccn1
-51	-1.2	0.68	i	-0.7	-2	·	FC(F)(F)c1cc(-c2ccccc2)nc2ncnn12
5.2	-1.4	0.67	i	3.8	1	4	Cc1ccc(-n2nc3c(=O)n(CC(=O)NCc4ccccc4Cl)nc(C)c3c2C)cc1
-2.7	-3.1	0.68	i	-2.6	1	0	O=C(Nc1ccc2ccccc2n1)Nc1ccccc1F
·	4.2	·	i	0.8	8	1	COc1ccc(/C=N/Nc2cc(C)nc(N3CCOCC3)n2)c(OC)c1
3.3	-1.3	0.69	i	-0.9	0	9	Cc1ccccc1NC(=S)NC(=O)COc1ccccc1C
4.8	0.6	0.73	i	3.2	-4	-5	CN1CCN(C(=O)c2ccccc2NC(=O)c2ccccc2Br)CC1
2.3	0.5	0.72	·	-2.6	8	0	CCOC(=O)Cn1cnc2c(nnn2-c2ccc(C)cc2)c1=O
1.6	-8.6	0.74	·	2.6	-3	2	CCn1nc(C(=O)OCC(=O)Nc2ncc(Cl)c(C)c2Cl)c2ccccc2c1=O
-123	6.2	0.66	·	1.7	-6	13	Cc1ccc2nc(-c3sc4nc(C)ccc4c3N)[nH]c2c1
6.5	-0.1	0.68	·	2.6	6	32	CN1CCC(=NNC(=O)C(=O)NC2CCCCC2)CC1
1.8	2.4	0.7	i	0.3	7	31	CCC(Sc1ccc2nnc(-c3cccnc3)n2n1)C(=O)O (stereo unspecified)
3.4	2.3	0.57	i	-3.7	-1	-3	Cc1cc(Cl)c(OCCCn2ccnc2)c(Br)c1
4.0	0.1	0.72	i	0.6	0	-1	O=C(COC(=O)c1cncc(Br)c1)NCc1ccccc1
·	6.6	·	i	-4.2	0	1	O=C(CSc1nc2ccccc2o1)N/N=C/c1ccccc1C(=O)O
4.0	-4.3	0.71	i	0.6	-2	0	COc1ccc(OC)c(NC(=O)CSc2nnc(-c3cccnc3)s2)c1
·	-0.1	·	i	0.2	11	-5	N/C(=N\OC(=O)CCC1CCCC1)c1cccc([N+](=O)[O-])c1
2.8	-5.8	0.68	·	0.2	15	-40	Nc1ccccc1O
1.2	-1.7	0.7	i	-3.5	5	6	COCCOC1CCN(C(=O)C2CCC(=O)N(CCc3ccccc3)C2)CC1 (stereo unspecified)
3.3	2.3	0.71	i	4.4	3	·	COc1ccc(N2CCN(C3CCCN(Cc4cccc(C)c4)C3)CC2)cc1 (stereo unspecified)
1.7	-0.7	0.65	i	0.4	4	·	Cc1ccc(N2C(=O)N(CC(=O)Nc3ccc(F)c(F)c3)C(=O)C2C)cc1 (stereo unspecified)
1.9	12	0.7	·	0.0	-9	-7	CC(C)(C)NC(=O)NC(=O)CSc1nnc(COc2ccccc2Cl)o1
5.2	-0.8	0.72	i	·	-4	·	COCCCNC(=O)CC1C[C@H](C(=O)N2CCOCC2)[C@@]2(CCC3CCCC3)c3[nH]c4ccc(OC)cc4c3CCN2C1=O (stereo partly specified)

An excerpt from above in order of molecular weight, ascending:
UCH37 inh	HNF4A DNA FP	Ecoli growth	FGF22 binding	LANA-H2B inh	B2AR ag	ALR inh	smiles
2.8	-5.8	0.68	·	0.2	15	-40	Nc1ccccc1O
6.5	-0.1	0.68	·	2.6	6	32	CN1CCC(=NNC(=O)C(=O)NC2CCCCC2)CC1
1.7	-0.7	0.65	i	0.4	4	·	Cc1ccc(N2C(=O)N(CC(=O)Nc3ccc(F)c(F)c3)C(=O)C2C)cc1 (stereo unspecified)

(next part)
UCH37 inh	HNF4A DNA FP	Ecoli growth	FGF22 binding	LANA-H2B inh	B2AR ag	ALR inh	smiles
3.5	-1.2	0.62	·	2.7	-1	0	CCCCC1=C([O-])C2N=CC=CC2=[N+](c2ccccn2)C1=O (stereo unspecified)
-1.3	0.5	0.67	i	-4.5	1	-9	COc1ccc(C)cc1NC(=O)CSc1ccc(Cl)cc1
-0.8	-0.4	0.72	·	1.1	2	-3	CC(C)(CNS(=O)(=O)c1ccc(F)cc1)CNS(=O)(=O)c1ccc(F)cc1
0.9	26	0.73	·	-1.0	-5	5	COc1ccc2c(C(=O)CN3CCN(c4ccccc4)CC3)c[nH]c2c1
2.8	-0.8	0.72	i	2.0	-6	2	CCNC(=S)N1N=C2c3ccccc3CCC2C1c1ccc(F)cc1 (stereo unspecified)
-0.1	2.9	·	·	2.2	-8	·	C[C@@]12C(=O)N(c3cccc(F)c3)C(=O)N1[C@H](c1ccc(F)cc1)[C@@H]1C(=O)N(C3CCCCC3)C(=O)[C@@H]12
2.1	6.1	0.71	·	3.1	3	94*	Cc1cc2c(cc1C)NC(c1cccnc1)C1=C(CC(C)(C)CC1=O)N2 (stereo unspecified)
-0.2	2.9	0.6	i	0.4	2	0	CCN1CCN(S(=O)(=O)c2ccc(Cl)c(C(=O)NC(C)c3ccccc3Cl)c2)CC1 (stereo unspecified)
-27	17	0.75	i	·	3	·	O=C1OC(c2cccs2)=N/C1=C\c1ccc(-c2ccccc2Cl)o1
4.5	-0.4	0.71	i	1.4	-4	-72	COc1ccc(-c2cc(C(=O)NC(Cc3c[nH]c4ccccc34)C(=O)O)c(C)o2)cc1OC (stereo unspecified)
2.5	1.8	0.66	i	i	1	-1	CCOc1ccccc1NC(=O)C1CCCN1C(=O)c1cccs1 (stereo unspecified)
-0.6	-0.9	0.72	·	-6.6	28	-4	COc1ccc(CNCCC(c2ccc(OC(C)C)cc2)C(C)C)cc1OC (stereo unspecified)
0.8	-0.2	0.69	i	-2.8	0	-3	CCn1c(SCC(N)=O)nnc1C(C)C
5.9	-2.6	0.68	i	·	33	·	C=CS(=O)(=O)c1sc(Cl)c(N2CCOCC2)c1[N+](=O)[O-]
·	3.3	·	i	·	-6	·	COc1ccc(OCC(=O)NCc2nc(-c3ccccc3)no2)cc1

Entries listed above printed as active in ALR inh.
UCH37 inh	HNF4A DNA FP	Ecoli growth	FGF22 binding	LANA-H2B inh	B2AR ag	ALR inh	smiles
2.1	6.1	0.71	·	3.1	3	94*	Cc1cc2c(cc1C)NC(c1cccnc1)C1=C(CC(C)(C)CC1=O)N2 (stereo unspecified)

(more compounds)
UCH37 inh	HNF4A DNA FP	Ecoli growth	FGF22 binding	LANA-H2B inh	B2AR ag	ALR inh	smiles
-0.5	13	0.66	i	-0.8	-1	·	CC(C)[C@H](NC(N)=O)C(=O)Nc1cccc(S(=O)(=O)N2CCOCC2)c1
·	-0.2	·	i	-2.1	-6	-3	CC1(C)CC(NS(=O)(=O)c2ccc(C(C)(C)C)cc2)CC(C)(C)N1
3.6	1.7	0.77	·	-0.4	0	-5	CCOc1ccc(OCC(=O)N2CCOCC2)cc1
1.9	3.1	0.64	i	-5.9	7	-10	Cc1cccc(NC(=O)c2ccc(S(=O)(=O)N3CC(C)OC(C)C3)cc2)n1 (stereo unspecified)
5.0	-1.4	0.7	·	-1.6	-9	6	Cc1cc(C(=O)CSc2nnnn2C)c(C)n1-c1cccc(F)c1
-1.2	2.0	0.71	i	0.5	-9	-3	O=C(O)C(Sc1ccncn1)c1ccccc1 (stereo unspecified)
6.6	4.3	0.66	i	-0.4	10	-4	CC1CCCN(CC(O)COc2ccc(-c3ccccc3)cc2)C1 (stereo unspecified)
3.1	0.5	0.67	i	-3.7	-2	-16	CC(=O)c1ccc(NC(=O)C[n+]2ccc(N(C)C)cc2)cc1
-61	2.4	0.71	i	-2.9	-3	26	N#Cc1nc(-c2ccccc2)oc1NCc1ccco1
4.7	3.0	0.72	i	4.4	-2	-49	COc1cccc(CNC(=O)CCC2CCCN(C(=O)c3cccnc3SC)C2)c1 (stereo unspecified)
0.4	2.8	0.64	i	4.1	-10	·	Cc1ccc(-c2nc3c(c(SCC(=O)N4CCOCC4)n2)COC(C)(C)C3)cc1
2.7	-3.8	0.69	i	0.8	0	12	CCOc1ccc(S(=O)(=O)N2CCC(C(=O)NCc3cccnc3)CC2)cc1
-1.3	1.2	0.68	i	0.2	-10	-39	Cc1ccc(NC(=O)C(=O)Nc2ccc(C)cn2)nc1
3.3	11	0.7	i	1.0	9	·	CC(=O)c1cccc(Nc2ccc(-c3ccccc3F)nn2)c1
8.5	-1.0	0.69	·	-1.5	-1	·	Cc1ccc2[nH]c(=O)c(CN(CC3CCCO3)S(=O)(=O)c3c(C)ccc4nsnc34)cc2c1 (stereo unspecified)

In the list so far, two have a nitro group on carbon:
UCH37 inh	HNF4A DNA FP	Ecoli growth	FGF22 binding	LANA-H2B inh	B2AR ag	ALR inh	smiles
·	-0.1	·	i	0.2	11	-5	N/C(=N\OC(=O)CCC1CCCC1)c1cccc([N+](=O)[O-])c1
5.9	-2.6	0.68	i	·	33	·	C=CS(=O)(=O)c1sc(Cl)c(N2CCOCC2)c1[N+](=O)[O-]

Carrying on:
UCH37 inh	HNF4A DNA FP	Ecoli growth	FGF22 binding	LANA-H2B inh	B2AR ag	ALR inh	smiles
1.9	0.5	0.72	i	-9.6	-5	-3	COc1cc(C(=O)NCc2cc(C)nc3ccccc23)cc(OC)c1OC
·	-0.9	·	·	-0.4	8	-4	CC/C(=N\OC(=O)c1ccc(OC(C)C)cc1)c1ccc(C)cc1
-1.7	0.2	0.68	i	3.1	5	-11	CCOC(=O)C1CCN(C(=O)CCNC(=O)c2ccccc2OC)CC1
-0.1	0.2	0.68	i	·	5	3	COC(=O)[C@]1(C)N[C@H](CN(C)C(=O)c2ccc(F)cc2)[C@@H]2C(=O)N(Cc3ccccc3)C(=O)[C@@H]21
·	10	·	i	-4.2	-16	-10	CC(C(=O)c1ccc(-c2ccccc2)cc1)[n+]1cccc(NC(=O)c2ccccc2)c1 (stereo unspecified)
1.5	1.3	0.64	i	8.3	-1	9	Cc1ccccc1N1CCN(CCCN2C(=O)C3CCCCN3C2=O)CC1 (stereo unspecified)
-3.1	0.5	0.71	·	5.2	5	-6	Cc1nc2ncnn2c(C)c1CCC(=O)N1CCN(c2ccccn2)CC1
2.6	-1.1	0.74	i	-4.6	-1	-11	CCOC(=O)c1c(C)c(-c2ccccc2)n(CC(=O)NCCC(C)C)c1C
3.2	1.2	0.67	i	i	-5	0	O=C(c1ccccc1)c1ccc(C(=O)N2CCN(c3ccccc3Cl)CC2)cc1
3.6	-3.4	0.72	·	1.5	-7	-2	COC(=O)c1ccc(OC)c(CSc2nnc(COc3ccc(OC)cc3)o2)c1
3.2	2.7	0.68	i	-3.4	-10	-2	O=C(OCC(=O)N1CCCC1)c1cc(=O)c2ccccc2o1
0.6	0.3	0.67	i	3.8	15	-3	O=C(Nc1ccc(CN2CCOCC2)cc1)c1ccc(-c2ccc(Cl)cc2Cl)o1
0.7	1.8	0.64	·	-188	-3	0	Cc1cc(NC(=O)Cc2csc(-c3ccccc3)n2)ccc1Br
2.1	-1.7	0.6	i	8.0	6	-4	Cc1cc(C(F)(F)F)cc(NNC(=O)NC(=O)c2ccccc2Cl)n1
3.9	-2.2	0.56	i	-6.7	18	-3	O=C(NCC1CCN(Cc2cccc(Cl)c2)CC1)Nc1ccc(Cl)cc1
4.5	3.1	0.66	i	-1.7	-3	0	CCOCCCNCC(=O)Nc1ccc(S(=O)(=O)NC(C)CC)cc1 (stereo unspecified)
4.7	-0.6	0.67	·	5.7	0	-11	Cc1ccc(CNC(=O)CCS(=O)(=O)c2cccc3nsnc23)cc1

Screening data: PubChem BioAssay, several laboratories
